TRPV1 PAM: enhances activation of the human vanilloid receptor TRPV1; TRPV1-expressing cells, Fluo-8 calcium influx, capsaicin EC20 potentiation; host cell line not named in the record; control for the full effect not named in the record; potentiation, % at 8.33 µM; 320,000 tested, 0.02% active; AID 540277; active means potentiation above 80%; inconclusive means 30% to 80%; inactive means below 30%; also: 0% is about no effect
Target sequence (Q8NER1 whole entry, looked up): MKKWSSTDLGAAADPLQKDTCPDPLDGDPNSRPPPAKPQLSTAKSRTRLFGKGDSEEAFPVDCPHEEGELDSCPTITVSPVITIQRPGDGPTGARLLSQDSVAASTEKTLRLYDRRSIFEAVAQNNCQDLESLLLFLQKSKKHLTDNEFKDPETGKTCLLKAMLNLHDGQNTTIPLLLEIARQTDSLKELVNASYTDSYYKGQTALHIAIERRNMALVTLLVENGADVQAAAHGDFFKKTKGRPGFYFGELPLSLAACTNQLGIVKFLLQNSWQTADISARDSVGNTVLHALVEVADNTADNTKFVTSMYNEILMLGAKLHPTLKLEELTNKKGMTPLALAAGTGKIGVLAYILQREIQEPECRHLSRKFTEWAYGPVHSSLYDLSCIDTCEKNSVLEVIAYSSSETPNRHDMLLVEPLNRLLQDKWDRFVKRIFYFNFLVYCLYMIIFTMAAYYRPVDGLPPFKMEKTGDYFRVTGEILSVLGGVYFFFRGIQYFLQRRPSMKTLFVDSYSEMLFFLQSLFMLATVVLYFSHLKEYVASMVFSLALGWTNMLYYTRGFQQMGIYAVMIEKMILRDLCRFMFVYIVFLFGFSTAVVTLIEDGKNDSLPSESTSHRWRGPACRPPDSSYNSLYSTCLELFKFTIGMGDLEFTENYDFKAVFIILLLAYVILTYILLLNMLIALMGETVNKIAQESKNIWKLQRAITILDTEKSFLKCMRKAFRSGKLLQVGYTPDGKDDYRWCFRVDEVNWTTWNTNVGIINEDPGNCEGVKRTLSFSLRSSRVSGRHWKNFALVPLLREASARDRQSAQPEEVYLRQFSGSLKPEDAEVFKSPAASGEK
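TRPV1-expressing cells were cultured overnight at 35.5C and loaded with Fluo-8 calcium dye for 40 to 90 min at room temperature. After a 10 s baseline, compound was added and calcium influx was read kinetically for 3 min (ex 480/em 520 nm).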
Menin MLL FP FL: inhibitors of human menin-MLL interaction, wild-type MLL peptide | Fluorescence polarization, fluorescein-MLL peptide displacement from menin | FP activity change, % at 61.4 µM | 290,000 tested, under 10 active; inconclusive = falling polarisation curve, or a change in total fluorescence; inactive = total fluorescence flat and polarisation flat or rising; no compound was filed as active; the % refers to the polarisation; negative = inhibition;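 also: % of control where 0% means no effect; inhibitors lower the polarisation; unlabelled MLL peptide was the positive control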
TRPML1 blocker: inhibitors of human TRPML1 channel; activity change, negative = inhibition, % (concentration not given with the values); TRPML1-inducible cells, Ca2+ dye fluorescence, FDSS; active compounds read low; inhibition of EC80 agonist-evoked calcium signal; 390,000 tested, 0.02% active; Q9GZU1; in the data active means activity change below about -50%; inconclusive means about -30% to -50%; inactive means above about -30%;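 also: stimulus is agonist 54-4 at its EC80 concentration; % is scaled to controls: 0 for no effect and ±100 for the full control effect; the text of the record puts the active cut at -80%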
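TRPML1-DL cells, Tet-induced overnight (~16 h, 37 °C) at 1,500 cells/well, were loaded with Ca8 no-wash dye plus quencher for 45-90 min at room temperature. Compounds were pinned during FDSS kinetic reading; agonist 54-4 at EC80 (4 uM final) then added.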
TRPML1 ag: activates the human TRPML1 channel. TRPML1-expressing cells, Ca2+ dye fluorescence, FDSS; host cell line not named in the record; reference of the full effect not given here. activation, % (concentration not given with the values). 410,000 tested, 0.12% active. AID 624414; in the data active = activation above about 50%; inconclusive = about 30% to 50%; inactive = below about 30%; also: 0% is about no effect; the text of the record puts the active cut at 80%
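Agonist activity was taken from a 110 s kinetic Ca2+ dye read on the FDSS after pinning compounds onto TRPML1-DL cells. The cells were seeded at 1,500/well with Tet inducer, incubated about 16 h, then dye-loaded at room temperature.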
Sfp inh: blocks B. subtilis Sfp PPTase activity | Q9F4F7 | 310,000 tested, 3.5% active | Biochemical Sfp PPTase activity, qHTS | Potency, µM, without a hit: max response, negative = inhibition, actives largely listed as inhibitors | AID 1490; active = well fitted inhibition curve with a large enough effect; inconclusive = small, poorly fitted or top-dose-only effect, or another doubt; inactive = no such curve, though single readings can be large or run the other way;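 also: the enzyme is Sfp with the accession as filed and its product quenches rhodamine fluorescence; potency is read from the fitted curve at half-maximal effect; 0% = enzyme reaction without inhibitor and -100% = no enzyme wells; top concentration of the series not given in the record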
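Fluorescence-quenching assay: 15 nM Sfp-PPTase preincubated 15 min at room temperature with compound, then 5 uM rhodamine-CoA and 12.5 uM BHQ-2-labelled YbbR peptide added. Fluorescence (ex 525/em 598 nm) read at start and after 30 min; difference gives rate.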
ClpP mod: qHTS Assay for Activators of ClpP; ATP-dependent Clp protease proteolytic subunit (Bacillus subtilis (strain 168)), P80244; purified B. subtilis ClpP, FRET peptide cleavage, 20 min; Potency, µM (highest dose often 57.5 µM), inactives show at the highest dose activity change, negative = active; 340,000 tested, 1.9% active; active = well fitted falling curve with a large enough effect; inconclusive = small, poorly fitted or top-dose-only effect; inactive = no such curve, though single readings can be large or run the other way; also: potency is read from the fitted curve at half-maximal effect; the source files actives as falling curves though it sought activators and does not explain the sign; nearly all actives have a fitted effect of over 65% in size; many hits overshoot -100%
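Buffer: 100 mM Tris/HCl pH8, 100 mM KCl, 0.05% low protease BSA, 2.5% glycerol, 0.01% Tween-20. ClpP 10 microg/mL final; 20 min RT; delta FRET normalized to ADEP and DMSO controls.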
PINK1 modulator: changes PINK1 expression. PINK1 immunofluorescence, high-content cytometry, 24 h. Potency, µM (doses to about 76.6 µM), without a hit: at the top dose activation (PINK1 increase), actives largely listed as activators. 410,000 tested, 0.2% active; active = well fitted activation curve with a large enough effect; inconclusive = small, poorly fitted or top-dose-only effect; inactive = flat fitted curve, though single readings scatter; cell line not stated here;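 also: potency is read from the fitted curve at half-maximal effect; % of control where 0% means no effect; nearly all actives have a fitted effect of over 65% in size; a mitochondrial uncoupler was the plate control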
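Measures PINK1 amount and localization on or inside mitochondria by immunofluorescence. Stable cells get compounds at 5 concentrations for 24 hours before fixation and staining; CCCP controls included.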
An asterisk follows results filed as active; u = inconclusive; x = not tested or not shown; [ ] = another dose, or the depositor's remark.

SMILES,TRPV1 PAM,Menin MLL FP FL,TRPML1 blocker,TRPML1 ag,Sfp inh,ClpP mod,PINK1 modulator
Cc1sc2nc(SCC(=O)O)[nH]c(=O)c2c1C,13,-3.0,-7,-0.1,1%,x,-1.8%
C=CCOc1cccc(C(=O)Nc2ncn[nH]2)c1,4,-0.5,3,-0.3,1%,-1.5%,-0.4%
CCCc1cc(=O)[nH]c(SCCN2C(=O)c3ccccc3C2=O)n1,1,0.4,34,1.4,30%,1.7%,0.2%
Cc1cccc(Cn2c(C)c(CNC3CCCCCC3)c(C(=O)O)c2C)c1,x,x,2,-0.8,x,-1.6%,0.3%
CC(C)NC(=O)c1onc(CSc2ccc(C(C)C)cc2)c1C(=O)O,0,-1.3,-6,-0.4,17%,1.0%,-1.3%
COc1ccccc1-n1nc(C(=O)O)c2ccccc2c1=O,19,1.6,7,0.8,10%,-2.1%,x
COc1ccc(Br)cc1S(=O)(=O)N1CCCc2ccccc21,-5,u,20,-0.3,7%,-0.2%,1.6%
CCOC(=O)CNc1c(N2CCN(c3ccccn3)CC2)c(=O)c1=O,x,0.3,-7,-0.4,27%,-2.2%,2.2%
CCOc1cc(NC(=S)NCCOC)c(OCC)cc1NC(=O)c1cccs1,-11,2.8,3,0.8,0%,x,11%
Cc1nc(CN2CCN(C(=O)CCc3nnc(Cc4c[nH]c5ccccc45)o3)CC2)cs1,-1,-7.8,18,0.7,9%,x,-1.3%
Cc1c(C(=O)N2CCCCCC2)c(S(=O)(=O)Nc2cccc(C#N)c2)c(C)n1C,x,x,10,0.1,x,0.3%,-1.7%
C=CCn1c(C)csc1=Nc1ccc(C(C)=O)cc1,-22,0.4,16,-1.1,-10%,x,0.8%
N#Cc1cc2c(nc1SCC(O)CS(=O)(=O)Cc1ccc(Cl)cc1)CCCC2 (stereo not given),-5,6.9,49,-0.2,-6%,-5.8%,-0.6%[38.3 µM]
Cc1ccc(NC(=O)CSc2nnnn2C2CC2)cc1S(=O)(=O)N1CCOCC1,-2,x,-17,0.3,x,-2.5%,-0.6%
FC(F)(F)c1cccc(Cc2noc(CN3CCC(N4CCCCC4)CC3)n2)c1,3,-2.5,-9,0.1,10%,x,0.7%
CCn1nc(C(=O)OCC(=O)c2ccc(F)cc2)c2ccccc2c1=O,0,-6.7,4,0.9,1%,-1.7%,-0.6%
Cc1ccc(S(=O)(=O)NNC(=O)c2ccc(O)cc2)cc1,17,-5.6,14,1.2,u,-2.5%,0.5%
COc1ccc(C(=O)Cn2cc([N+](=O)[O-])nc2C)cc1,-12,0.0,16,0.5,5%,-0.8%,-1.1%
CCOC(=O)c1c2c3c(cccc3[nH]c1=O)C(=O)c1ccccc1-2,21,2.1,-5,-0.2,8%,x,6.8%
Cn1c(N)c(C(=O)N/N=C/c2ccccc2)sc1=S,9,0.7,2,0.3,1%,x,8.4%
Cc1ccc(S(=O)(=O)C2(S(=O)(=O)c3ccc(C)cc3)CC2)cc1,-2,4.7,-5,0.6,1%,-2.4%,0.8%
Clc1ccc2c(N/N=C/c3ccccc3Br)ccnc2c1,-4,11,1,-0.3,-29%,-7.9%,-4.1%
COc1ccccc1NC(=O)CSc1ccc2nnc(-c3ccncc3)n2n1,x,-1.6,13,-1.1,9%,-1.3%,1.0%
O=C(C[n+]1cccc(C(=O)Nc2ccccc2)c1)c1ccc(Cl)cc1,x,x,x,0.1,x,1.5%,0.8%
Nn1c(SCC(=O)NCCC2=CCCCC2)nnc1-c1cccnc1,4,x,2,0.9,x,-1.5%,2.5%
COc1ccccc1Oc1ccccc1[N+](=O)[O-],-4,-2.0,-8,3.6,-6%,x,2.3%
Cc1ccc(CNCc2c(C(=O)O)c(C)n(Cc3ccc(C)cc3)c2C)cc1,x,x,9,-0.3,x,0.4%,-1.3%
COc1ccc(C(=O)Nc2cc(Cl)ccc2OC(=O)c2ccc(OC)cc2)cc1,7,14,10,1.4,-5%,-5.0%,x
COc1ccc(Cc2nnc(SCc3nc4ccccc4c(=O)[nH]3)o2)cc1,7,-0.4,-6,0.4,-15%,-1.3%,3.0%[38.3 µM]
O=C(CNC(=O)c1ccccc1Cl)NCC(c1cccs1)N1CCOCC1 (stereo not given),2,x,9,-0.1,x,-2.4%,0.1%
COc1ccc(S(=O)(=O)N2CCC3CC2c2cc(N4CCOCC4)ccc23)cc1 (stereo not given),x,x,-7,0.9,x,2.0%,-0.6%
O=C(O)c1ccc(/C=C/c2nc3ccccc3c(=O)[nH]2)cc1,23,4.3,-6,-0.2,-16%,-9.7%,3.1%

Rewritten with two lines to a compound: 12 of the compounds above.
Fields: TRPV1 PAM, Menin MLL FP FL, TRPML1 blocker, TRPML1 ag, Sfp inh, ClpP mod, PINK1 modulator
> C=CCOc1cccc(C(=O)Nc2ncn[nH]2)c1
 : 4, -0.5, 3, -0.3, 1%, -1.5%, -0.4%
> CCCc1cc(=O)[nH]c(SCCN2C(=O)c3ccccc3C2=O)n1
 : 1, 0.4, 34, 1.4, 30%, 1.7%, 0.2%
> Cc1cccc(Cn2c(C)c(CNC3CCCCCC3)c(C(=O)O)c2C)c1
 : x, x, 2, -0.8, x, -1.6%, 0.3%
> CC(C)NC(=O)c1onc(CSc2ccc(C(C)C)cc2)c1C(=O)O
 : 0, -1.3, -6, -0.4, 17%, 1.0%, -1.3%
> COc1ccccc1-n1nc(C(=O)O)c2ccccc2c1=O
 : 19, 1.6, 7, 0.8, 10%, -2.1%, x
> COc1ccc(Br)cc1S(=O)(=O)N1CCCc2ccccc21
 : -5, u, 20, -0.3, 7%, -0.2%, 1.6%
> CCOC(=O)CNc1c(N2CCN(c3ccccn3)CC2)c(=O)c1=O
 : x, 0.3, -7, -0.4, 27%, -2.2%, 2.2%
> CCOc1cc(NC(=S)NCCOC)c(OCC)cc1NC(=O)c1cccs1
 : -11, 2.8, 3, 0.8, 0%, x, 11%
> Cc1nc(CN2CCN(C(=O)CCc3nnc(Cc4c[nH]c5ccccc45)o3)CC2)cs1
 : -1, -7.8, 18, 0.7, 9%, x, -1.3%
> Cc1c(C(=O)N2CCCCCC2)c(S(=O)(=O)Nc2cccc(C#N)c2)c(C)n1C
 : x, x, 10, 0.1, x, 0.3%, -1.7%
> C=CCn1c(C)csc1=Nc1ccc(C(C)=O)cc1
 : -22, 0.4, 16, -1.1, -10%, x, 0.8%
> N#Cc1cc2c(nc1SCC(O)CS(=O)(=O)Cc1ccc(Cl)cc1)CCCC2 (stereo not given)
 : -5, 6.9, 49, -0.2, -6%, -5.8%, -0.6%[38.3 µM]

(further entries)
SMILES,TRPV1 PAM,Menin MLL FP FL,TRPML1 blocker,TRPML1 ag,Sfp inh,ClpP mod,PINK1 modulator
O=[N+]([O-])c1ccc(O)c(C=Nc2cccc3ncccc23)c1,5,7.5,-4,0.9,21%,x,1.2%
Cc1ccc(OCCNC(=O)[C@H]2O[C@@H](n3ccc(N)nc3=O)[C@H](O)[C@@H]2O)cc1C,x,x,x,-0.1,x,0.6%,-0.3%
C/C=C/C=C/C(=O)Nc1nccs1,9,1.3,-14,-0.2,35µM*,1.8%,-1.3%
COc1ccc(-c2nn(CCC#N)cc2C=C(C#N)C#N)cc1,2,0.9,x,x,3%,-0.9%,1.4%
N/C(=N\OC(=O)CCC1CCCC1)c1ccncc1,-1,2.5,2,-0.7,-5%,x,1.4%
Cc1ccc(SCc2noc(-c3c(C)noc3C)n2)cc1,-9,0.7,-3,1.9,-3%,x,3.6%

Given with each value named: entries from further up.
structure: C/C=C/C=C/C(=O)Nc1nccs1
- TRPV1 PAM: 9
- Menin MLL FP FL: 1.3
- TRPML1 blocker: -14
- TRPML1 ag: -0.2
- Sfp inh: 35µM*
- ClpP mod: 1.8%
- PINK1 modulator: -1.3%

structure: COc1ccc(-c2nn(CCC#N)cc2C=C(C#N)C#N)cc1
- TRPV1 PAM: 2
- Menin MLL FP FL: 0.9
- TRPML1 blocker: x
- TRPML1 ag: x
- Sfp inh: 3%
- ClpP mod: -0.9%
- PINK1 modulator: 1.4%

Source: PubChem
